Screens deposited in PubChem BioAssay by National Center for Advancing Translational Sciences (NCATS).
Cruzain inh noDet – cruzain (T. cruzi) inhibition without detergent; P25779; purified cruzain, Z-FR-AMC fluorescence, no detergent; Potency, µM, for the others: max response, negative = inhibition, actives largely listed as inhibitors; 200,000 compounds, 2.3% hits; AID 1476;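 further: plate controls were enzyme without inhibitor for no effect and buffer without enzyme for full effect; nearly all actives have a fitted effect of over 40% in size; top concentration of the series not given in the record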
Target sequence (P25779 123-467 limits assumed): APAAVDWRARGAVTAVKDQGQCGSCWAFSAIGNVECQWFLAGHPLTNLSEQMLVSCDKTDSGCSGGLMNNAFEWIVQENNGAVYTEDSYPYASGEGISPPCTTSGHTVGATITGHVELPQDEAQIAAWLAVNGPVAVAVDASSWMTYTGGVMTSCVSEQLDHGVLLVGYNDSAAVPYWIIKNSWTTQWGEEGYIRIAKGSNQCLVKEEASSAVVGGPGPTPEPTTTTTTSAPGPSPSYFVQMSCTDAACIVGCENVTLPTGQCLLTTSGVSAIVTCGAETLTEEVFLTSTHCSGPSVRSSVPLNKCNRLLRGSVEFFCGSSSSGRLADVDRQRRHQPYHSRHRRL
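Detergent-free condition (0.00005% Triton X-100) in acetate buffer pH 5.5 with DTT. 1.5 nM enzyme and compound were pre-mixed 15 min, then 2 uM Z-FR-AMC substrate added; reaction progress from fluorescence change between first and third reads (60 s).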
Cruzain inh Det – blocks cruzain activity in presence of Triton detergent | Potency, µM, without a hit: max response, negative = inhibition, actives largely listed as inhibitors | AID 1478 | purified cruzain, Z-FR-AMC fluorescence, 0.01% Triton | 200,000 compounds, 0.43% hits;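 further: plate controls were neutral wells for no effect and buffer without enzyme for full effect; nearly all actives have a fitted effect of over 40% in size; top concentration of the series not given in the record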
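Read-out: AMC fluorescence (360 nm excitation, 450 nm emission), four reads over 2 min, first-to-third difference used. Conditions: cruzain 1.5 nM, Z-FR-AMC 2 uM, pH 5.5 acetate, 5 mM DTT, 0.01% Triton X-100.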
Lassa entry inh – inhibitors of Lassa virus binding or cell entry. Lassa virus pseudotype entry inhibition, cell reporter; control for the full effect not named in the record. Potency, µM (doses to about 37.9 µM), for the others: at the top dose activity change, negative = inhibition, actives largely listed as inhibitors. 300,000 compounds, 1.2% hits; active means well fitted inhibition curve with a large enough effect; inconclusive means small, poorly fitted or top-dose-only effect, or effect the other way; inactive means flat fitted curve, though single readings scatter; tested in HEK293 cells; further: on the % scale 0 is the no-effect control and ±100 the full control effect; nearly all actives have a fitted effect of over 50% in size; luciferase read-out
Marburg entry inh – blocks Marburg virus binding to or entry into cells. 300,000 compounds, 1.8% hits. AID 540276. Marburg virus pseudotyped entry inhibition, cell reporter; control for the full effect not named in the record; about a third of the inactives were read at about 46 µM. Potency, µM (top dose mostly 37.8 µM), for inactives: top-dose activity change, negative = inhibition, actives largely listed as inhibitors; active = well fitted inhibition curve with a large enough effect; inconclusive = small, poorly fitted or top-dose-only effect, or effect the other way; inactive = flat fitted curve, though single readings scatter; tested in HEK293 cells; about a fifth of its hits are not listed in these tables; further: on the % scale 0 is the no-effect control and ±100 the full control effect; luciferase read-out
NS1 inh – influenza NS1 inhibition; S. cerevisiae slowed by influenza A NS1, growth recovery by OD600; Potency, µM (doses to about 46.1 µM), for the others: at the top dose activity, positive = more growth; 270,000 compounds, 0.4% hits; AID 2326; active means well fitted rising curve with a large enough effect; inconclusive means small, poorly fitted or top-dose-only effect; inactive means no such curve, though single readings can be large or run the other way; further: nearly all actives have a fitted effect of over 50% in size
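Read-out: OD600 growth recovery of NS1-expressing budding yeast. Cells grown overnight at 30C in -URA glucose medium, washed, resuspended and diluted 1:100 in 2% galactose assay medium, pH 6.0. Same strain lacking NS1 served as positive control.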
RE007 growth inh – less growth of the S. pombe RE007 Vpr strain; 360,000 compounds, 0.21% hits; Potency, µM (highest dose often 92.2 µM), for inactives: at the top dose activity change, negative = less growth; S. pombe RE007 Vpr strain, BacTiter-Glo ATP luminescence, 24 h; control for the full effect not named in the record; active = well fitted falling curve with a large enough effect; inconclusive = small, poorly fitted or top-dose-only effect; inactive = no such curve, though single readings can be large or run the other way;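 further: on the % scale 0 is the no-effect control and ±100 the full control effect; nearly all actives have a fitted effect of over 50% in size; the assay follows cell death caused by Vpr and the record does not say whether a fall means rescue or toxicity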
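Fission yeast RE007 carrying one integrated HIV-1 vpr copy, seeded at OD 0.01 in PMG+AL medium with 23 nL pinned compound. Grown 24 h at 30 degrees; viability read by BacTiter-Glo luminescence after 5 min.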
StopGo reporter – FMDV 2A StopGo reporter, luciferase signal; AID 1159524; Potency, µM (highest dose often 57.9 µM), for the others: at the top dose signal change, negative = less light; human cells with a luciferase reporter of 2A StopGo recoding; control for the full effect not named in the record; 410,000 compounds, 1.2% hits; active = well fitted falling curve with a large enough effect; inconclusive = small, poorly fitted or top-dose-only effect; inactive = no such curve, though single readings can be large or run the other way; tested in HEK293T cells; further: on the % scale 0 is the no-effect control and ±100 the full control effect; nearly all actives have a fitted effect of over 45% in size; luciferase light after 4 h
SARS PLP yeast – SARS-CoV PLP inhibition in yeast; S. cerevisiae expressing SARS-CoV PLpro, growth rescue; control for the full effect not named in the record; Potency, µM (top dose mostly 32.9 µM), without a hit: top-dose activity, positive = growth rescue; 330,000 compounds, 0.19% hits; AID 485353; active means well fitted rising curve with a large enough effect; inconclusive means small, poorly fitted or top-dose-only effect; inactive means no such curve, though single readings can be large or run the other way; further: 0% is about no effect; nearly all actives have a fitted effect of over 55% in size; growth read by luminescence after 48 h
Active calls of the source: *; ? = inconclusive; nt = not tested or not shown; [ ] = remark or other dose. Unless noted, the call rests on the fitted dose curve; in most records, active means well fitted curve in the direction sought with a large enough effect; inconclusive means small, poorly fitted or top-dose-only effect, or another doubt; inactive means no such curve, though single readings can be large; an effect the other way counts as inactive or inconclusive. Potency means the concentration at half of the fitted maximal effect.

SMILES	Cruzain inh noDet	Cruzain inh Det	Lassa entry inh	Marburg entry inh	NS1 inh	RE007 growth inh	StopGo reporter	SARS PLP yeast
c1ccc(-c2noc(-c3cccnc3)n2)nc1	-8%	5.3%	-23%	1%	?	-10%	3%	-9%
NS(=O)(=O)c1ccc(CCNC(=O)COC(=O)/C=C/c2ccc(OC(F)F)cc2)cc1	nt	nt	-6%	?	nt	-8%	-10%	-3%
COc1ccc(C(=O)N(c2ccc(OC)cc2)S(=O)(=O)c2cccs2)cc1	-8%	-1.1%	-19%	?	2%	0%	-19%	-46%
COc1cc(C2C(=O)N(C3CCCCCC3)CC(=O)N2CCC2=CCCCC2)ccc1OC(C)C (stereo not given)	8%	1.4%	?	nt	nt	nt	-11%	nt
COc1cccc(CNn2cnnc2)c1O	nt	nt	-7%	-15%[46.1 µM]	-5%	21%	-9%	1%
CCOC(=O)c1sc(NC(=O)CSc2nc3c(c(=O)n2-c2ccc(C)cc2)SCC3)c(C(=O)OCC)c1C	6.3µM*	-8.0%	18%	23%	15%	20%	-21%	-2%
COC(=O)c1ccc(NC(=O)CCN2CCN(Cc3ccccc3)CC2)cc1	0%	1.3%	-15%	1%	-2%	-2%	0%	-2%
Cc1nc(CNS(=O)(=O)c2ccc3c(c2)CCCC3)cs1	9%	0.2%	nt	nt	-98%	6%	-2%	-12%
NNC(=O)c1nc(Cl)c(Cl)c(N)c1Cl	nt	nt	nt	nt	-46%	6%	-11%	1%
CCOc1ccccc1C(=O)NCC(c1ccc(N(C)C)cc1)N1CCCC1 (stereo not given)	3%	-0.6%	?	nt	nt	nt	-27%	nt
CCOC(=O)c1c(C)c(C(=O)N2CCN(c3ccc(F)cc3)CC2)c(C)n1C	nt	nt	-20%	-29%	nt	2%	-5%	-3%
CN(C)c1ccc(/C=C/C(=O)c2ccc3c(c2)OCCO3)cc1[N+](=O)[O-]	?	-6.9%	4%	?	8%	5%	-20%	1%
O=S(=O)(c1cccs1)n1nnc2ccccc21	-3%	1.5%	5%	9%	4%	12%	-8%	2%
COCCN(C(=O)C(C)C)c1nnc(-c2ccc(C)cc2)s1	?	-2.3%	0%	?	-25%	0%	24%	-10%
COc1ccc(C)cc1C(=O)CCC(=O)NC1CCCCC1	nt	nt	-17%[46.1 µM]	10%[46.1 µM]	nt	5%	-4%	1%
NS(=O)(=O)c1ccc(CCNCC(=O)NC2CC2)cc1	nt	nt	0%	9%	2%	8%	-8%	0%
CC(C)(C)OC(=O)N1CCC[C@H]1C(=O)NCC1CCC(C(=O)O)CC1 (stereo not given in full)	1%	-1.5%	-3%	-1%	6%	-20%	12%	1%
CCOc1cc2[nH]c(=S)n(CCCC(=O)N3CCC4(CC3)OCCO4)c(=O)c2cc1OCC	11%	0.9%	-1%	10%	-2%	3%	-15%	7%
CCCNc1c(NC(C)=O)c(=O)oc2ccccc12	2%	-2.3%	4%	-2%	22%	-1%	-11%	0%
Cc1cccc(Cn2c(C)c(C)c3cc(C(=O)NCc4ccc(C)o4)ccc32)c1	?	-3.4%	-3%[46.1 µM]	nt	nt	nt	?	nt
CCO[C@@H]1OC(C(=O)N2CCOCC2)=C[C@H](c2ccc(Br)cc2)[C@H]1CCCO	nt	nt	nt	nt	-4%	6%	-13%	-1%
Cc1csc(=O)n1CC(=O)OCC(=O)NCc1ccc(F)cc1	nt	nt	15%	19%	nt	7%	-22%	-1%
CCC(C)[C@H]1CNC(=S)N1CCC12CC3CC(CC(C3)C1)C2 (stereo not given in full)	nt	nt	nt	nt	-2%	6%	13%	0%
Cc1cc(NC(=O)CSCc2ccc([N+](=O)[O-])cc2)no1	nt	nt	-17%	2%[46.1 µM]	4%	5%	-10%	1%
Cc1ccccc1C1=NCC(=O)N(CC(=O)NCc2ccco2)c2sc3c(c21)CCCC3	2%	-9.3%	?	?	-46%	-13%	nt	-11%

Entries of single compounds, quoted from the list. Screens in order: Cruzain inh noDet	Cruzain inh Det	Lassa entry inh	Marburg entry inh	NS1 inh	RE007 growth inh	StopGo reporter	SARS PLP yeast
`CCCNc1c(NC(C)=O)c(=O)oc2ccccc12` is listed with 2%	-2.3%	4%	-2%	22%	-1%	-11%	0%
`COc1ccc(C)cc1C(=O)CCC(=O)NC1CCCCC1` is listed with nt	nt	-17%[46.1 µM]	10%[46.1 µM]	nt	5%	-4%	1%
`Cc1nc(CNS(=O)(=O)c2ccc3c(c2)CCCC3)cs1` is listed with 9%	0.2%	nt	nt	-98%	6%	-2%	-12%
`COc1cc(C2C(=O)N(C3CCCCCC3)CC(=O)N2CCC2=CCCCC2)ccc1OC(C)C` (stereo not given) is listed with 8%	1.4%	?	nt	nt	nt	-11%	nt
`O=S(=O)(c1cccs1)n1nnc2ccccc21` is listed with -3%	1.5%	5%	9%	4%	12%	-8%	2%

Returning to the listing with the 2 entries that preceded the break.
SMILES	Cruzain inh noDet	Cruzain inh Det	Lassa entry inh	Marburg entry inh	NS1 inh	RE007 growth inh	StopGo reporter	SARS PLP yeast
Cc1cc(NC(=O)CSCc2ccc([N+](=O)[O-])cc2)no1	nt	nt	-17%	2%[46.1 µM]	4%	5%	-10%	1%
Cc1ccccc1C1=NCC(=O)N(CC(=O)NCc2ccco2)c2sc3c(c21)CCCC3	2%	-9.3%	?	?	-46%	-13%	nt	-11%
Fc1ccc(Nc2ncnc3sccc23)cc1	nt	nt	-2%[46.1 µM]	2%[46.1 µM]	-5%	-26%	-6%	-4%
COc1ccc(CNC(=O)C(C#N)c2nc3ccccc3nc2N2CCN(C)CC2)cc1 (stereo not given)	-13%	-7.2%	-21%	?	-7%	-19%	-18%	-2%
CCc1cccc(C)c1NC(=O)C(c1ccccc1)N1CCC1=O (stereo not given)	8%	1.9%	-13%	?	12%	-15%	-11%	-5%
Cc1cc(C)cc(Oc2ccc(C(F)(F)F)cc2C#N)c1	0%	-15%	-7%	27%[46.1 µM]	5%	-20%	-23%	0%
CN(C)c1ccc(C(CC(=O)O)C(=O)O)cc1 (stereo not given)	nt	nt	8%	10%[46.1 µM]	5%	-4%	-2%	0%
CC(=O)c1ncnn1CC(=O)c1ccc(Cl)cc1Cl	0%	1.9%	29%	1%	-6%	-22%	-19%	-9%
FC(F)(F)c1ccc(CN2C[C@@H]3C(c4ccc(Cl)nc4)C4(c5cccnc5)CC3(C4)[C@H]2c2ccccc2)cc1 (stereo not given in full)	-1%	-2.2%	nt	nt	-2%	1%	?	-5%
CCC(=O)Nc1nc2ccccc2n1CCN1CCOCC1	-6%	-0.2%	?	-2%	-4%	14%	-5%	6%
COc1ccccc1OCC(=O)NCC1(N2CCOCC2)CCCCC1	-8%	-1.0%	-11%[46.1 µM]	-15%[46.1 µM]	nt	nt	-15%	nt
O=C(COc1ccccc1)N1CCNC1=O	2%	0.5%	2%	5%	-2%	-5%	-22%	10%
O=C(c1ccco1)N1CCN(Cc2csc(-c3ccccc3Cl)n2)CC1	nt	nt	1%	-12%	-14%	?	-11%	1%
COCCC(=O)N1CCC(Oc2ccc(C(=O)N3CCC[C@H]3CO)cc2)CC1	nt	nt	?	-1%	-6%	-8%	-10%	-1%
O=C1NC2(Nc3ccccc31)C(=O)Nc1ccccc12 (stereo not given)	16%	-4.9%	13%	2%	?	-14%	10%	0%
CCOc1cccc(CC(=O)N2CCc3c([nH]c4ccccc34)C2c2ccc(C)cc2)c1OCC (stereo not given)	?	1.5%	?	nt	nt	nt	-23%	nt
CN(C)CCN(C(=O)c1ccco1)c1nc2cc3c(cc2s1)OCCO3	nt	nt	nt	nt	10%	-8%	41%[activator]	-3%
CN(C)CCN(Cc1cc2cc3c(cc2nc1Cl)OCO3)C(=O)c1ccco1	nt	nt	-13%[46.1 µM]	-27%[46.1 µM]	-3%	-2%	23%	-4%
CC(=O)N1CCCc2cc(S(=O)(=O)N3CCC(C(=O)NCCC(C)C)CC3)ccc21	-3%	-1.3%	-1%[46.1 µM]	nt	nt	nt	-3%	nt
CC(C)COc1ccc(C(=O)Nc2ccccc2[N+](=O)[O-])cc1	-9%	-8.7%	?	?	-9%	8%	54%[activator]	-25%
CN(C)CCN(Cc1ccco1)C(=O)c1cc2c(Cl)nc3ccccc3c2s1	nt	nt	0%	15µM*	nt	9%	-28%	0%
COc1cccc(C(=O)N(CN2CCCC2=O)c2ccccc2OC)c1	0%	3.9%	11%	6%	-2%	-1%	-17%	-1%
C=C(C)CC(c1ccccc1)N(C(C)=O)c1ccco1 (stereo not given)	nt	nt	nt	nt	-7%	11%	-8%	3%
CC1=C(C(=O)OCc2ccccc2)C(c2cccs2)NC(=O)N1CCCC(=O)O (stereo not given)	-8%	-0.7%	-2%	-38%	-7%	8%	11%	-2%
CCC(=O)N1CCc2cc(Br)cc(S(=O)(=O)CCC(=O)NCCOC)c21	-1%	5.1%	15%	1%	1%	4%	1%	-1%
CCC(=O)N1c2ccccc2CC1C(=O)NCCCN1CCN(c2ccccc2)CC1 (stereo not given)	3%	0.0%	18%[46.1 µM]	nt	nt	nt	-19%	nt
CCCC(CCC)C(=O)Nc1ccncc1	2%	1.2%	20%	-1%	-1%	-13%	0%	-4%

Rows are unselected; overall some 4.8% were active at least once.
